KCNQ2 block: KCNQ2 potassium channel inhibitors, primary screen, cell-based, CHO-K1, FluxOR thallium flux, B-score (AID 2156); Potassium voltage-gated channel subfamily KQT member 2 (Rattus norvegicus), O88943; 20 min; stronger effect = lower value; only compounds with negative scores are shown here; some inactives read as strong as hits; B-score at 10 µM; 310,000 compounds, 1.1% hits;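 active means fluorescence ratio B-score at most minus 3 library SDs, with starting brightness B-score within 2 library SDs, cut at about -5.5 in these data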
Target sequence (O88943 whole entry, looked up): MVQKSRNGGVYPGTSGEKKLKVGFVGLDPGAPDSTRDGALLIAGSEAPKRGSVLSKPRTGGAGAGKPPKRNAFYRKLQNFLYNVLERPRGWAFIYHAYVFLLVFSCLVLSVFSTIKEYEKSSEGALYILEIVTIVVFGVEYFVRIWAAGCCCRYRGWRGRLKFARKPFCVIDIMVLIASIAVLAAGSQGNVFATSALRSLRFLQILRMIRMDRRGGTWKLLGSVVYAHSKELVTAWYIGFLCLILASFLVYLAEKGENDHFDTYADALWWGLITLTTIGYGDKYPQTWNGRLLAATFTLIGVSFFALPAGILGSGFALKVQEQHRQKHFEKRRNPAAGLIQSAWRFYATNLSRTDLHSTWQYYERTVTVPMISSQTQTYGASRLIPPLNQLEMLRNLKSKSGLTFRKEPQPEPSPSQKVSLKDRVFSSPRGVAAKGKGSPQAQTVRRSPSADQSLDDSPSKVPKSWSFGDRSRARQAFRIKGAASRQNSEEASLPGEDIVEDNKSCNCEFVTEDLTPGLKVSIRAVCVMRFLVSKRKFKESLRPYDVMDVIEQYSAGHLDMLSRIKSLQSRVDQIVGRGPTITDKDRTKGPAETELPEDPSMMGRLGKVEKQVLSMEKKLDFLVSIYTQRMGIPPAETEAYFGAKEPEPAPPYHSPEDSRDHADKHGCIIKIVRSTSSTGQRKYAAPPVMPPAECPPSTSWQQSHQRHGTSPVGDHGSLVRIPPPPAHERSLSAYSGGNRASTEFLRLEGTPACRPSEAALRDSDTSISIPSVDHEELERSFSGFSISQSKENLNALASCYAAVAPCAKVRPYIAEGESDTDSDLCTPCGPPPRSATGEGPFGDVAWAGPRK
KCNQ2 block baseline: recorded beside KCNQ2 block, whose call it bears; B-score; measured here: initial fluorescence intensity artifact check;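 brightness before thallium and not channel activity; 0 = typical well and far values either way flag optical interference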
The depositor's hits bear a star; i = inactive. An excerpt, so the mix of outcomes need not match the whole.

Start of the listing, in advance (three entries):
SMILES	KCNQ2 block	KCNQ2 block baseline
CCC1(c2ccc(F)cc2)NC(=O)N(CC(=O)Nc2cccnc2Cl)C1=O (stereo not given)	i	0.02
O=C(c1cnc2n(c1=O)CCS2)N1CCN(c2ccc([N+](=O)[O-])cc2)CC1	i	-0.03
Cc1n[nH]c(=O)nc1NCc1ccco1	i	0.56

All compounds of this part (from the top)
SMILES	KCNQ2 block	KCNQ2 block baseline
CCC1(c2ccc(F)cc2)NC(=O)N(CC(=O)Nc2cccnc2Cl)C1=O (stereo not given)	i	0.02
O=C(c1cnc2n(c1=O)CCS2)N1CCN(c2ccc([N+](=O)[O-])cc2)CC1	i	-0.03
Cc1n[nH]c(=O)nc1NCc1ccco1	i	0.56
COc1ccc(-c2cc(=O)n(-c3nc4ccccc4[nH]3)[nH]2)cc1	i	-3.78
O=C(Nc1ccc2[nH]c(=O)[nH]c2c1)c1cc(F)c(F)cc1Cl	i	-0.12
Cc1nnc(NC(=O)CSc2nc(C(C)C)nc3ccccc23)s1	i	-0.02
COc1ccc(OC)c(/C=C2\Oc3cc(OCC(=O)N4CCC(C(=O)O)CC4)ccc3C2=O)c1	i	-2.27
O=C(COC(=O)CN1C(=O)c2ccccc2C1=O)Nc1ccc(S(=O)(=O)N2CCCC2)cc1	i	-3.05
Cc1cccc2c1CC(C)(C)N=C2C1=C(O)CCCC1=O	i	1.18
COc1ccc(NS(=O)(=O)c2cc([N+](=O)[O-])ccc2N/N=C\c2c(C)[nH]c3ccccc23)cc1	i	-0.74
CCCCNC(=O)N1CCN(S(C)(=O)=O)CC1	i	-0.08
CC(Nc1nc(-c2ccccc2F)nc2ccccc12)c1ccccc1 (stereo not given)	i	-2.83
CCOC(=O)c1c(C)oc2c(CC(=O)c3ccccc3)c(Cl)c(O)c(O)c12	i	0.24
COC(=O)c1ccccc1NC(=O)Cn1cc2c(n1)CCC(C)C2 (stereo not given)	i	-1.13
COC(=O)C1=C(C)N(C)C(C)=C(C(=O)OC)C1c1cccc(Br)c1	i	0.51
CN1CCCC(OC(=O)c2ccccc2F)C1 (stereo not given)	i	-0.31
CCOc1ccc(CCNC(=O)CCC(=O)N2CCSc3ccccc32)cc1OCC	i	-1.57
COCCCNc1nc(-c2ccc(Cl)cc2)nc2ccccc12	i	-0.34
Nc1c(N2CCCCC2)c2ccccc2oc1=O	i	-1.42
CCOC(=O)[C@@H]1[C@H]2COc3ccccc3[C@@H]2N2C(=O)N(c3ccccc3)C(=O)[C@]12C	i	2.04
O=C(CC1Sc2ccccc2NC1=O)OCC(=O)N1CCc2ccccc21 (stereo not given)	i	0.3
Cc1ccc(CNC(=O)CCc2c(C)nn(-c3ccc(N4CCOCC4)nn3)c2C)cc1	i	-0.47
CCCC(=O)Nc1nnc(SCC(=O)NCc2cccs2)s1	i	0.07
CCC(c1nnnn1Cc1cccs1)N1CCN(C2CCCC2)CC1 (stereo not given)	i	-1.61
COc1ccc(NC(=O)c2cc(S(=O)(=O)N3CCCCC3)ccc2N2CCCCC2)cn1	i	1.26
CCOc1ccc(NC(=O)Nc2ccc(Cc3ccncc3)cc2)cc1	i	-0.42
CCOC(=O)c1cc2c(ccn2C)n1CC(=O)N1C(C)CCCC1C (stereo not given)	i	0.02
CN(CCCOc1ccccc1Br)Cc1ccccc1	i	1.08
CCCCC(=O)Nc1ccc2c(c1)C(=O)NC2=O	i	-0.35
COc1ccc(C)cc1N(CC(=O)Nc1cccnc1)S(=O)(=O)c1ccccc1	i	-1.72
COc1ccccc1S(=O)(=O)Cc1ccc(C(=O)NCc2ccc(C)cc2)o1	i	-0.83
CN(C1CCS(=O)(=O)C1)S(=O)C12CC3CC(CC(C3)C1)C2 (stereo not given)	i	0.1
Cc1cc(C)c(S(=O)(=O)c2ccccc2C)c(OCCN(C)C)n1	i	1.65
Cc1ccccc1C(=O)NN1CCOCC1	i	1.34
COc1ccc(Nc2cc(C(=O)NCc3ccco3)c3ccccc3n2)c(OC)c1	i	0.48
Cc1ccnc(NC(=O)COc2ccc(Cl)cc2)n1	i	0.08
O=C(Nc1ccc(Cl)cc1C(F)(F)F)c1ccc(Cl)cc1	i	1.73
NC(=O)c1c(NC(=O)c2cccnc2Cl)sc2c1CCCC2	i	0.79
Cc1cc(C)nc(SCc2cc(=O)c(OC(=O)c3ccc(Br)o3)co2)n1	i	0.08
CCOc1ccccc1NC(=S)NCCc1ccccc1	i	-0.28
O=Nc1c(-c2cccc([N+](=O)[O-])c2)nc2ncccn12	i	0.3
COCCCNC(=O)CCSc1ccc(Cl)cc1	i	-0.03
Cc1cc([N+](=O)[O-])nn1CC(=O)Nc1nccs1	i	1.54
Cc1ccc(CSCC(=O)N(C)CC(=O)Nc2cccc(F)c2)cc1	i	-0.44
CCOC(=O)C1=C(N)OC2=C(C(=O)CC(C)(C)C2)C1c1ccc(C)s1 (stereo not given)	i	-1.76
COc1ccc(N(C)C(=O)c2oc(=O)c3ccccc3c2-c2ccc(C)cc2)c(OC)c1	i	0.11
OCCOCCOCCn1c2ccccc2c2ccccc21	i	1.69
O=C(NCc1ccccn1)C(C(=O)c1cccc([N+](=O)[O-])c1)n1cc(Cl)ccc1=O (stereo not given)	i	-2.41
O=C(COC(=O)c1cc(S(=O)(=O)N2CCCCC2)ccc1N1CCOCC1)NC1CCCCC1	i	-0.08
O=C1COC(c2ccccc2)=CN1Cc1ccccc1	i	-0.59
CC(=O)c1nn(-c2cccc(C)c2)cc1C(=O)c1cccc(Br)c1	i	-0.85
COc1ccc(-n2c(=S)[nH]c3cc(C(=O)NCCCN4CCCC4=O)ccc3c2=O)cc1OC	i	1.09
CCS(=O)(=O)C1=NSC2=NC(=O)/C(=C\c3cc(C)n(-c4cccc(OC)c4)c3C)C(=N)N21	i	-0.55
COc1ccccc1C(=O)NNC(=O)c1sccc1-n1cccc1	i	-0.01
CCCCC(O)(CCN1CCOCC1)c1ccc(Cl)cc1 (stereo not given)	i	0.09
Cc1ccccc1-c1nnc(-c2ccccc2)o1	i	-0.61
CC(=O)N(C(C)=O)c1ncc2c([nH]c3ccccc32)c1C#N	i	-1.86
COCCn1c(SCC(=O)Nc2ccc3[nH]c(=O)[nH]c3c2)nc2ccccc2c1=O	i	-1.5
COc1ccc(OCc2cc(C(=O)N3CCCC(O)C3)no2)c2ccccc12 (stereo not given)	i	-1.03
COc1ccc(-c2nc(/C=C3\C(C)=Nc4ccccc43)c(O)o2)cc1	i	-2.14
(listing goes on)
SMILES	KCNQ2 block	KCNQ2 block baseline
COc1ccc(C2CC(c3cccs3)Nc3nnnn32)cc1 (stereo not given)	i	-0.15
O=C(O)/C=C/C(=O)NCCc1ccc(Cl)cc1	i	1.28
O=C(NCCc1ccccc1)C(c1cccs1)N(C(=O)c1csnn1)C1CC1 (stereo not given)	i	0.06
CCc1ccc(-c2cc(C)no2)cc1S(=O)(=O)NCCc1ccccc1	i	-0.31
Cc1cccc(/C=C/c2nc3ccccc3c(=O)[nH]2)c1	i	-0.15
COc1ccc(CC2C(=O)OC(C)(C)OC2=O)c(Cl)c1OC	i	0.05
CC1CCN(S(=O)(=O)c2cccc(C(=O)N(C)C3CCS(=O)(=O)C3)c2)CC1 (stereo not given)	i	1.26
O=C(COC(=O)[C@@H]1CCCN1S(=O)(=O)c1ccccc1F)c1ccccc1	i	0.23
CC1(C)CCC[C@@]2(C)CC=C(C(=O)O)[C@@H]3C[C@]312	i	-0.02
O=C(/C=C/c1cccc([N+](=O)[O-])c1)NCCSc1ccccc1	i	0.26
COc1ccc(C2C(C#N)=C(N)Oc3cc(C)n(Cc4ccncc4)c(=O)c32)cc1 (stereo not given)	i	0.01
OCCC1CN(Cc2c(O)ccc3ccccc23)CCN1CCc1ccccc1 (stereo not given)	i	-0.66
Cc1[nH]c2ccc(C(=O)OCCN(C)C)cc2c1C	i	0.69
CC(=O)Nc1ccc(Nc2cc(C(C)C)nc3c(-c4ccccc4)c(C)nn23)cc1	i	-0.07
Cc1ccc2[nH]c(=O)c(CN(CC3CCCO3)C(=S)Nc3ccccc3)cc2c1 (stereo not given)	i	-0.2
Cc1ccc(C(=O)CSc2nc3ccccc3c(=O)[nH]2)cc1C	i	1.2
COc1ccc(OCc2cc(C(=O)NC3CCOCC3)no2)c2ccccc12	i	-0.28
CC(=O)n1nc(-c2ccc(C)cc2)nc1NCc1ccco1	i	-0.51
COc1ccc2c(CC(=O)OCC(=O)Nc3ccc(S(N)(=O)=O)cc3)coc2c1	i	0.46
Cc1ccsc1C(=O)OCc1nc2ccsc2c(=O)[nH]1	i	-0.07
O=C(Nc1ccc(F)c(Cl)c1)NC1CC1	i	-0.03
COCCCNC(=O)CSc1c2c(nc3ccc(Cl)cc13)CCCC2	i	0.24
Nc1nc(SC23CC4CC(CC(C4)C2)C3)ns1	i	1.98
Cc1noc(NS(=O)(=O)c2ccc(NC(=O)CCC3CCCC3)cc2)c1C	i	0.03
Nc1nonc1-c1nc2ccccc2n1Cc1ccc(F)cc1Cl	i	0.16
COc1cccc(CCNC(=O)CCc2nnc(Cc3cc(OC)ccc3OC)o2)c1	i	0.57
CCC(=O)c1cc2c(cc1NC(=O)c1ccc(C)cc1)OCCO2	i	-2.15
CC(C)(C)c1ccc(/C=C/C(=O)NC2=NCCS2)cc1	i	0.88
COCCN(C(=O)CCc1ccccc1OC)c1nnc(-c2cccnc2)s1	i	0.43
Cn1c(=O)c2c(nc(CN3CCOCC3)n2CC(O)CO)n(C)c1=O (stereo not given)	i	0.05

Random excerpt: 6 compounds from above
SMILES	KCNQ2 block	KCNQ2 block baseline
CCC(=O)c1cc2c(cc1NC(=O)c1ccc(C)cc1)OCCO2	i	-2.15
Cc1ccsc1C(=O)OCc1nc2ccsc2c(=O)[nH]1	i	-0.07
CC(=O)n1nc(-c2ccc(C)cc2)nc1NCc1ccco1	i	-0.51
Cc1noc(NS(=O)(=O)c2ccc(NC(=O)CCC3CCCC3)cc2)c1C	i	0.03
COCCCNC(=O)CSc1c2c(nc3ccc(Cl)cc13)CCCC2	i	0.24
Nc1nc(SC23CC4CC(CC(C4)C2)C3)ns1	i	1.98

The list continues:
SMILES	KCNQ2 block	KCNQ2 block baseline
CCCCSCc1nc2ccccn2c1Br	i	-0.03
Cc1nn(Cc2ccccc2)c(C)c1NC(=O)CCCn1nc(C)c([N+](=O)[O-])c1C	i	-0.65
Cc1cc(-c2csc(N)n2)c(C)n1Cc1ccccc1	i	-0.03
COc1ccc(/C=C/C(=O)ONC2=NCCCCC2)cc1OC	i	-0.01
COc1ccc(OC)c(-n2c(C)ccc2-c2ccc(S(C)(=O)=O)cc2)c1	i	1.66
Cc1ccc2[nH]c3c(=O)n(CC(=O)N4CCN(C)CC4)ncc3c2c1	i	0.46
COc1ccc(NC(=O)CN2CCC(NC(=O)c3ccco3)CC2)c([N+](=O)[O-])c1	i	-0.31
CC1=C(C)C(=O)N(CCC(=O)O)C1=O	i	-0.58
O=S(=O)(Nc1nnc(C(F)(F)F)s1)c1ccc(Cl)cc1	i	1.67
CC(C)c1ccc(CCNC(=O)c2cccc(S(=O)(=O)N3CCN(C)CC3)c2)cc1	i	-1.31
CS(=O)(=O)c1ccc2nc(NC(=O)CC3CCCC3)sc2c1	i	1.72
CC(C)NC(=S)N1CCC(Cc2ccccc2)CC1	i	-0.72
COc1cc(C(=O)NCCCNc2nc3cc(C)c(C)cc3cc2C#N)cc(OC)c1OC	i	-1.51
CCOC(=O)c1cnc2c(C)c(-c3ccccc3)[nH]n2c1=O	i	0.66
CCOC(=O)CN(C(=O)CSc1nnc2c(n1)[nH]c1ccc(OC)cc12)c1ccc(F)cc1	i	0.01

Part of the list above, with each value named.
CCCCSCc1nc2ccccn2c1Br
  KCNQ2 block: i; KCNQ2 block baseline: -0.03

Cc1nn(Cc2ccccc2)c(C)c1NC(=O)CCCn1nc(C)c([N+](=O)[O-])c1C
  KCNQ2 block: i; KCNQ2 block baseline: -0.65

Cc1cc(-c2csc(N)n2)c(C)n1Cc1ccccc1
  KCNQ2 block: i; KCNQ2 block baseline: -0.03

COc1ccc(/C=C/C(=O)ONC2=NCCCCC2)cc1OC
  KCNQ2 block: i; KCNQ2 block baseline: -0.01

More records.
SMILES	KCNQ2 block	KCNQ2 block baseline
CC(=O)OCCc1[nH]c2ccccc2c1C	i	-0.06
Cc1ccc(S(=O)(=O)N(C)C)cc1NC(=O)C1CCC1	i	1.29
CCc1cccc(C)c1NC(=S)N(CCN(C)C)C(C)c1cccnc1 (stereo not given)	i	-0.04
N#C/C(=C\c1ccc(OCc2ccc(F)cc2)cc1)C(=O)Nc1cccc(C(=O)O)c1	i	0.43
CCOc1ccc(NC(=O)N(CCCN2CCOCC2)Cc2cccnc2)cc1	i	0.16
Cc1ccc(S(=O)(=O)NC(C)CCc2ccccc2)cc1 (stereo not given)	i	0.01
CCN(CC)c1ccc(/C=N/NC(=O)c2nnn(-c3nonc3N)c2C(C)C)c(O)c1	i	-0.13
NC(=S)N=Nc1c(O)[nH]c2c(Br)cc(Br)cc12	i	0.01
CC(=O)NCCc1cc2ccc(C)c(C)c2[nH]c1=O	i	0.53
Cc1ccc(S(=O)(=O)N2CCOCC2)cc1NC(=O)CSc1nc2ccccc2c(=O)n1Cc1ccccc1	i	0.38
CCCC(C)C(=O)NCc1ccccc1OC (stereo not given)	i	1.09
Cc1ccc(CNC(=O)CN(C)S(=O)(=O)c2cnc[nH]2)cc1	i	0.1
Cc1ccccc1NC(=O)C1CCCN(C(=O)Nc2ccc(F)cc2)C1 (stereo not given)	i	-2.1
CCN(CC)CCN(Cc1cc2cc3c(cc2[nH]c1=O)OCCO3)C(=O)NC1CCCCC1	i	-2.3
Cc1ccc(C)c(CSC2=NCCN2S(=O)(=O)c2ccccc2)c1	-6.27*	0.06*
O=C(NC12CC3CC(CC(C3)C1)C2)C1CC(=O)N(c2ccc(Br)cc2)C1 (stereo not given)	i	1.27
O=C(c1ccc(Cl)c(Cl)c1)N1CCN(Cc2ccc3c(c2)OCO3)CC1	i	-0.81
O=C(CN1CCN(C2CCCCC2)CC1)c1c[nH]c2ccccc12	i	0.53

Screens as filed in PubChem.
